# Compound activity from PubChem BioAssay.
# TRPV1 potentiator – human TRPV1 potentiation | Q8NER1 | TRPV1-expressing cells, Fluo-8 calcium influx, capsaicin EC20 potentiation; host cell line not named in the record; control for the full effect not named in the record | potentiation, % at 8.33 µM | 320,000 compounds, 0.02% hits | AID 540277; active means potentiation above 80%; inconclusive means 30% to 80%; inactive means below 30%; note: 0% is about no effect
#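 Fluo-8 calcium influx in TRPV1-expressing cells, kinetic read (ex 480/em 520 nm). Compound added and read 3 min for agonist activity, followed by capsaicin at EC20 final and 2 min further read for enhancement.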
# Six1-Eya2 inh – Six1/Eya2 interaction inhibition | AlphaScreen GST-Six1/His-Eya2 binding, biochemical; stronger effect = lower value; control for the full effect not named in the record | activity change, % (no concentration beside the values) | 360,000 compounds, 0.56% hits | AID 651725; in the data active = activity change below about -65%; inconclusive = about -30% to -65%; inactive = above about -30%; note: % is set by controls: 0 for no effect and ±100 for the full control effect
#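 Compounds are tested against tagged Six1 and Eya2 proteins bridged by glutathione donor and nickel acceptor beads; after a one-hour incubation at 37 °C without light, AlphaScreen emission is recorded.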
# PINK1 expr mod – PINK1 expression modulation; PINK1 immunofluorescence, high-content cytometry, 24 h; Potency, µM (titrated, usually from 76.6 µM), inactives show at the highest dose activation (PINK1 increase), most hits filed as activators; AID 624263; 410,000 compounds, 0.2% hits; active = well fitted activation curve with a large enough effect; inconclusive = small, poorly fitted or top-dose-only effect; inactive = flat fitted curve, though single readings scatter; cell line not stated here;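 note: potency is the fitted concentration of half-maximal effect; % of control where 0% means no effect; nearly all actives have a fitted effect of over 65% in size; a mitochondrial uncoupler was the plate control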
#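 Measures PINK1 amount and localization on or inside mitochondria by immunofluorescence. Stable cells get compounds at 5 concentrations for 24 hours before fixation and staining; CCCP controls included.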
# CtBP-E1A inh – inhibitors of CtBP/E1A interaction; AlphaScreen GST-E1A/His-CtBP binding, 1536-well; stronger effect = lower value; control for the full effect not named in the record; activity change, % (test concentration not listed); 340,000 compounds, 0.49% hits; AID 651724; in the data active means activity change below about -65%; inconclusive means about -30% to -65%; inactive means above about -30%; note: % is set by controls: 0 for no effect and ±100 for the full control effect
#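 AlphaScreen with 125 nM GST-E1A and 125 nM His-CtBP (5X stocks) in Tris pH 8.0, 300 mM NaCl, BSA, Tween 20, TCEP. Compounds preincubated 2 h at 37 deg C, then glutathione donor/nickel acceptor beads added for 1 h at 37 deg C in dark.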
# D2 agonist – agonists of human D2 dopamine receptor (beta-arrestin) | P14416 | DiscoveRx PathHunter D2 beta-arrestin, luminescence, 90 min; 100% = 57 uM dopamine signal | activation, % (no concentration beside the values) | 360,000 compounds, 0.084% hits | AID 624465; in the data active = activation above about 40%; inconclusive = about 15% to 40%; inactive = below about 15%; note: compound concentration not given in the record; the text of the record calls up to 30% inactive
# Target sequence (P14416 whole entry, looked up): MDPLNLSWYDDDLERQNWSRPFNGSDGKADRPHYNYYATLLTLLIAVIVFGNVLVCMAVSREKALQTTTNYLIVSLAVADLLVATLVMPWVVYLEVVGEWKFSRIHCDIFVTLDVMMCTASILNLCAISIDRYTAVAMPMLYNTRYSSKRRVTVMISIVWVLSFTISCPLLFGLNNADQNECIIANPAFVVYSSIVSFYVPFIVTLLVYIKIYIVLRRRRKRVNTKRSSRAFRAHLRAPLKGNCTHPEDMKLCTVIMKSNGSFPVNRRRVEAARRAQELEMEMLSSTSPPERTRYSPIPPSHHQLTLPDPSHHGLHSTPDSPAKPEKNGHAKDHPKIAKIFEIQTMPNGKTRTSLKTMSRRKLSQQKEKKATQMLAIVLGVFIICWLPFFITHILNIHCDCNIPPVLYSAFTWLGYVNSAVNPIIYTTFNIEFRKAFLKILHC
#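 DiscoveRx PathHunter D2 beta-arrestin cells (2,100/well) attached overnight, then compound-stimulated 90 min at 37 C in HBSS/10 mM HEPES/0.1% Tween-20 buffer; beta-galactosidase complementation read by luminescence after 1 h at ambient temperature. Dopamine 57 uM final (EC100) as control.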
# Sfp inh – inhibitors of Bacillus subtilis Sfp phosphopantetheinyl transferase; Q9F4F7; Biochemical Sfp PPTase activity, qHTS; Potency, µM, inactives show max response, negative = inhibition, most hits filed as inhibitors; 310,000 compounds, 3.5% hits; AID 1490; active = well fitted inhibition curve with a large enough effect; inconclusive = small, poorly fitted or top-dose-only effect, or another doubt; inactive = no such curve, though single readings can be large or run the other way;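 note: the enzyme is Sfp with the accession as filed and its product quenches rhodamine fluorescence; potency is the fitted concentration of half-maximal effect; 0% = enzyme reaction without inhibitor and -100% = no enzyme wells; top concentration of the series not given in the record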
#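 Compounds were incubated with enzyme (final 15 nM) for 15 min at room temperature before substrate addition started the reaction. Fluorescence at 525 nm excitation, 598 nm emission was recorded immediately and after 30 minutes.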
# D2 PAM – positive allosteric modulators of human D2 dopamine receptor | P14416 | 360,000 compounds, 0.23% hits | DiscoveRx D2 beta-arrestin cells, luminescence, 90 min; 100% = 57 uM dopamine signal | potentiation, % (test concentration not listed); active = potentiation of 50% or more; inconclusive = 30% to 50%; inactive = 30% or less;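 note: compound concentration not given in the record; tested on top of an EC20 dose of dopamine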
#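 PathHunter D2 cells, attached overnight at 37 deg C, received compound in DMSO plus dopamine at EC20 (50 nM final) for 90 min at 37 deg C. Beta-arrestin recruitment was read as luminescence after 1 h with detection reagent at ambient temperature.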
# Active calls of the source: *; ? = inconclusive; . = no result given; & = joins results of further samples; [ ] = remark or other dose. No enrichment for hits. Share with any hit: about 3.7%.
# Sequence of screens – TRPV1 potentiator	Six1-Eya2 inh	PINK1 expr mod	CtBP-E1A inh	D2 agonist	Sfp inh	D2 PAM
1) C1CCN(C2CCN(c3nc4nonc4nc3N3CCSCC3)CC2)C1
  6	0	-0.3%	3	0.3	0%	2
2) CC(C)CCN1CC(C(=O)NC(C)C)CC1=O (centres undefined)
  -18	3	.	15	-0.4	18%	2
3) COc1cc2c(cc1NCc1ccc3c(c1)OCO3)oc1ccccc12
  10	?	1.8%	?	-1.6	?	3
4) Cn1c(=O)oc2cc(S(=O)(=O)NCc3ccc(C(=O)O)cc3)ccc21
  -11	1	1.7%	2	-1.0	16%	-3
5) CCOC(=O)CSc1nnc(CSc2nc3sc4c(c3c(=O)[nH]2)CCC4)n1C
  8	2	-0.3%	13	-1.8	-15%	-5
6) COc1ccc(N(CC(=O)NCc2ccccc2)C(=O)CCC(=O)Nc2cc(C)ccn2)c(OC)c1
  -10	6	1.1%	2	-1.2	-3%	-4
7) COC(C[C@@H](O)CC(=O)COCc1ccccc1)OC
  -1	7	-0.9%	1	-2.2	18%	-10
8) Cc1ccc(NC(=O)C(C)OC(=O)CCC2CCCCC2)cc1 (centres undefined)
  -25	0	2.5%	28	4.2	.	-9
9) O=C(CNC(=S)N(Cc1ccccc1)Cc1cccnc1)NC1CCCCC1
  7	10	0.0%	10	-4.4	10%	-9
10) Cc1nn2c(-c3ccccc3)nnc2c2ccccc12
  0	-16	4.2%	-16	-6.2	14%	-15

# For convenience, some entries already given.
# Sequence of screens – TRPV1 potentiator	Six1-Eya2 inh	PINK1 expr mod	CtBP-E1A inh	D2 agonist	Sfp inh	D2 PAM
1) C1CCN(C2CCN(c3nc4nonc4nc3N3CCSCC3)CC2)C1
  6	0	-0.3%	3	0.3	0%	2
2) CC(C)CCN1CC(C(=O)NC(C)C)CC1=O (centres undefined)
  -18	3	.	15	-0.4	18%	2
3) COc1cc2c(cc1NCc1ccc3c(c1)OCO3)oc1ccccc12
  10	?	1.8%	?	-1.6	?	3

# Following part:
# Sequence of screens – TRPV1 potentiator	Six1-Eya2 inh	PINK1 expr mod	CtBP-E1A inh	D2 agonist	Sfp inh	D2 PAM
11) Cc1cccc(C(=O)NC2CCN(CC(=O)Nc3ccc4c(c3)OCO4)CC2)c1
  3	-1	-0.3%	9	-1.0	5%	-11
12) CC1=C(C(=O)OCC2CCCO2)C(c2ccccc2Cl)NC(=O)N1 (centres undefined)
  -35	8	0.8%	5	-3.1	1%	-5
13) C[C@@H]1CN([C@H](C)CO)C(=O)c2cccc(NS(=O)(=O)c3cccs3)c2O[C@H]1CN(C)Cc1ccccc1
  .	2	3.0%	1	-3.2	.	-8
14) CCOC(=O)c1c(C)[nH]c(C)c1C(=O)COC(=O)c1ccc(Cl)c(S(N)(=O)=O)c1
  9	-16	1.9%	-3	-0.2	4%	-3
15) Cc1[nH]c(=O)c(C(=O)/C=C/c2ccccc2F)c2c1CCCC2
  6	0	-6.3%[38.3 µM]	9	-4.7	-9%	-14
16) CC(=O)NS(=O)(=O)c1ccc(NC(=O)c2ccc(NC(=O)c3cccs3)cc2)cc1
  -5	?	2.2%	-23	-3.2	.	-1
17) N#CCCCN1C(=O)C(O)(CC(=O)c2ccc3c(c2)OCCO3)c2ccccc21 (centres undefined)
  11	5	-1.5%	0	-5.3	17%	-7
18) CC(C)NC(=O)NC(=O)CSc1nnc(C(F)(F)F)n1C
  -6	6	1.0%	0	0.8	15%	-7
19) N#Cc1cc([N+](=O)[O-])cnc1NCC(O)CO (centres undefined)
  -8	2	-2.5%	11	-1.5	20%	-13
20) O=S(=O)(/C(=C\c1ccc(C(F)(F)F)cc1)c1nc2ccccc2[nH]1)c1ccccc1
  .	-1	-4.4%	2	-7.3	.	-16
21) Cc1nccn1CCCNC(=O)CC1C(=O)NCCN1Cc1ccc(F)cc1Cl (centres undefined)
  9	0	-0.3%	-9	-2.5	5%	5
22) CC(C)c1ccc(NC2CCCN(C(=O)c3cccc(N4CCNC4=O)c3)C2)cc1 (centres undefined)
  -8	-5	1.1%	-16	2.4	4%	-8
23) COC(=O)C1=CN(C(C)C)C=C(C(=O)OC)C1c1cccc(OC)c1
  -18	27	-2.9%	-2	0.3	7%	-5
24) O=C(C1=NNCC1c1ccccc1)C1CO1 (centres undefined)
  6	2	-1.0%	-23	-1.7	1%	-7
25) Cc1cc(NC(=O)CCC(=O)N(c2cccc(F)c2)C(C(=O)NC2CCCC2)c2ccc(C)o2)no1 (centres undefined)
  11	-15	0.1%	3	-4.2	5%	-23
26) Cc1ccc(SCC(=O)NCCc2ccccc2)cc1
  -20	-2	0.1%	-2	0.2	18%	-6
27) CCC(=O)Nc1nnc(SCC(=O)NCc2ccc3c(c2)OCO3)s1
  1	0	-1.9%	-14	-1.2	13%	-5
28) Cc1nnsc1C(=O)N1CCCC(Nc2ccc(C(C)C)cc2)C1 (centres undefined)
  -13	-1	0.9%	2	-2.9	17%	-7
29) CC1(c2ccc3c(c2)OCO3)NC(=O)N(CC(=O)Nc2ccc(N3CCOCC3)cc2)C1=O (centres undefined)
  -1	-3	-0.1%	2	-2.8	5%	-1
30) CC(C)Cn1c(/C=C/c2ccco2)nc2ccccc21
  -2	13	-0.4%	18	-2.6	35µM*	-9
31) CCN1CCN(c2nc3ccccc3nc2C(C#N)C(=O)OC2CCCCC2)CC1 (centres undefined)
  -14&-12	2	-1.7%	-13	-4.6	-6%	-25
32) COC(=O)c1sc(NC(=O)c2ccc3c(c2)OCO3)c(C#N)c1C
  .	-13	-0.6%	-11	-2.6	.	-8
33) CCN1CCN(c2ccc(S(=O)(=O)N3CCCCC3)cc2NC(=O)c2ccc([N+](=O)[O-])o2)CC1
  9	-24	-2.0%	-8	9.9	.	26
34) COc1ccc(-c2cccc(C3CC=CC4C3C(=O)N(Cc3ccccc3)C4c3ccc4ccccc4c3)c2)cc1 (centres undefined)
  10	-5	1.2%	-6	-1.7	4%&14%	-12
35) Cc1nnc(SCC(=O)NNC(=O)COc2ccc(Cl)cc2)n1C
  16	8	0.3%	-5	-1.1	6%	0
36) COCCCNC(=S)N(CCO)Cc1cc2cc3c(cc2[nH]c1=O)OCO3
  0	15	-0.2%	0	0.7	15%	-3
37) C=CCn1c(C)cc(C(=O)CSc2nnc(Cc3ccccc3)o2)c1C
  -21	-13	-1.5%	-6	-0.2	-11%	0
38) COc1ccccc1NC(=O)CCCCCN1C(=O)c2cccc3cccc(c23)C1=O
  28	?	11%	-5	2.7	-9%	-8
39) CCc1ccc(NC(=O)Cn2ncn3c(cc4ccccc43)c2=O)cc1
  29	5	2.1%&0.9%	-5	-2.1	5%	-9
40) COc1ccc(CNC(=O)c2csc3c2CCCC3)cc1
  -21	10	1.1%	-2	-3.3	.	-2
41) COCCNC(=O)c1ccc(Cn2c(=S)[nH]c3cc4c(cc3c2=O)OCO4)cc1
  -1	7	-3.1%	3	0.5	3%	13
42) COc1ccc(-c2cccc(NS(=O)(=O)c3ccc([N+](=O)[O-])cc3)c2)nn1
  0	1	-2.3%	-4	4.5	.	12
43) COc1ccc(NC(=O)CCC(=O)c2cccs2)c(OC)c1
  -6	-4	-0.4%	0	-2.3	12%	1
44) COc1ccc(NC(=O)[C@@]2(CC(=O)O)CC(/C=C/c3ccccc3)=NO2)cc1
  3	2	2.3%	-8	0.0	1%	3
45) CCOc1ccc(S(=O)(=O)N2CCC(C(=O)OCc3cccc(OC)c3OC)CC2)cc1
  -6	7	3.0%	10	1.6	.	-1
46) COc1ccc(NC(=O)CC2Nc3cccc4cccc(c34)NC2=O)cc1 (centres undefined)
  2	-8	0.5%&0.6%	.	-0.2	-4%	13
47) COc1ccc(Cl)cc1NC(=O)Cn1nnc(C(=O)NCc2ccc3c(c2)OCO3)c1N
  2	3	0.7%&3.0%	1	4.3	-18%	-14
48) CCCCC(=O)OCC(=O)c1cc(C)n(-c2c(C)n(C)n(-c3ccccc3)c2=O)c1C
  -2	-4	-0.4%	.	5.6	18%	26
49) O=c1nc2n(c3ccc(Br)cc13)CCS2
  15	-7	0.7%[38.3 µM]	-7	-0.6	20%	-17
50) CCOC(=O)c1cnc(SC)nc1Oc1cccc(NS(=O)(=O)c2ccc(F)cc2)c1
  3	3	-0.6%	-10	-0.8	1%	-8
51) Cc1cccc(NC(=O)C(=O)NCC2CCCN2S(=O)(=O)c2ccccc2)c1 (centres undefined)
  16	-1	-0.7%	9	-0.8	.	-11
52) COc1cc(/C=C(\C#N)C(=O)NCCc2ccccc2)cc(OC)c1O
  -7	-6	4.8%	-11	0.2	-2%	-11
53) CNc1nc(N)c(C(=O)C23CC4CC(CC(C4)C2)C3)s1
  -13	-7	1.0%	-23	-0.2	-13%	-4
54) CCC(=NC(C)c1ccccc1)c1c(O)n(C)c(=O)n(C)c1=O (centres undefined)
  -15	1	1.0%[38.3 µM]	-3	3.7	-8%	4
55) COCCn1cnnc1SCC(=O)Nc1ccccc1C(=O)Nc1ccc2c(c1)OCO2
  10	-5	-1.3%	6	-1.8	-18%	1
56) CS(=O)(=O)N1CCCC(C(=O)NCc2ccccn2)C1 (centres undefined)
  -4	-6	?	10	0.8	8%	-9
57) CC1(C)C2CCC1(CS(=O)(=O)Nc1ccccc1)C(=O)C2 (centres undefined)
  0	1	0.0%	-7	-0.9	18%	1
58) Cc1ccc2c(C(=O)CNc3nncs3)c(C)[nH]c2c1
  1	-7	0.9%&-0.6%	.	-4.8	-10%	-25
59) CCOC(=O)C(C)Sc1nnc(Cn2c(=O)sc3ccccc32)n1-c1ccccc1 (centres undefined)
  .	0	0.6%	0	-2.8	79µM*	-6
60) CC1=NN(c2ccccc2)C(=O)C1(C)C
  4	7	0.8%	-6	-4.1	13%	-7

# Following part:
# Sequence of screens – TRPV1 potentiator	Six1-Eya2 inh	PINK1 expr mod	CtBP-E1A inh	D2 agonist	Sfp inh	D2 PAM
61) O=S(=O)(c1ccc2c(c1)CCC2)N1CCNCC1
  -2	6	2.2%	-1	-1.2	.	-14
62) Cc1cccc2nc(-c3cccnc3)c(NCCC(C)C)n12
  -9	-14	0.1%	-7	-9.0	12%	-7
63) COc1cccc2c1N1C(=O)c3c(C(=O)O)cccc3C1CC2(C)C (centres undefined)
  9	0	2.4%	7	1.9	23%	5
64) CCOc1ccc(NC(C)=O)cc1[N+](=O)[O-]
  5	10	-0.7%	3	1.3	7%	-10
65) CC(OC(=O)Cc1ccccc1F)C(=O)Nc1ccc(Cl)cn1 (centres undefined)
  -14	3	5.8%	4	-2.6	.	-17
66) CC(C)NS(=O)(=O)c1ccc(N2C(=O)c3ccccc3C2=O)cc1
  -9	18	8.1%[38.3 µM]	34	1.2	-8%	-12
